High-throughput results deposited in PubChem by National Center for Advancing Translational Sciences (NCATS).
D2 ag: activates the human D2 dopamine receptor. P14416. DiscoveRx PathHunter D2 beta-arrestin, luminescence, 90 min; 100% = 57 uM dopamine signal. activation, % (concentration not given with the values). actives 0.084% (n = 360,000). AID 624465; in the data active = activation above about 40%; inconclusive = about 15% to 40%; inactive = below about 15%; note: compound concentration not given in the record; the text of the record calls up to 30% inactive
Target sequence (P14416 whole entry, looked up): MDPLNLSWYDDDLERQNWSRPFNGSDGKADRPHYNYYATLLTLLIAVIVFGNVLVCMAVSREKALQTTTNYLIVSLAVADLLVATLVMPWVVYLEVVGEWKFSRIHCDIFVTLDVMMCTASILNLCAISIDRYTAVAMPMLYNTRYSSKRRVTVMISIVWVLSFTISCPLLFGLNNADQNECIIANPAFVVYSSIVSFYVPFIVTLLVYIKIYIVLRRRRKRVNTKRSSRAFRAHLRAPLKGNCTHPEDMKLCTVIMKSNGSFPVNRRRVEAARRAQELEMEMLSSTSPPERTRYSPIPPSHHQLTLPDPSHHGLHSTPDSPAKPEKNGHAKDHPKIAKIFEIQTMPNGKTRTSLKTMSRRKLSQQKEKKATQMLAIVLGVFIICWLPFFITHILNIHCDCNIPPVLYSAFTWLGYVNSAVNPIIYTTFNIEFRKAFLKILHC
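DiscoveRx PathHunter D2 beta-arrestin cells (2,100/well) attached overnight, then compound-stimulated 90 min at 37 C in HBSS/10 mM HEPES/0.1% Tween-20 buffer; beta-galactosidase complementation read by luminescence after 1 h at ambient temperature. Dopamine 57 uM final (EC100) as control.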
CtBP-E1A blk: inhibitors of CtBP/E1A interaction; AlphaScreen GST-E1A/His-CtBP binding, 1536-well; stronger effect = lower value; control for the full effect not named in the record; activity change, % (test concentration not listed); actives 0.49% (n = 340,000); AID 651724; in the data active means activity change below about -65%; inconclusive means about -30% to -65%; inactive means above about -30%; note: % is set by controls: 0 for no effect and ±100 for the full control effect; compound concentration not given in the record
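Homogeneous bead-based format: GST-tagged E1A captured on glutathione donor beads, His-tagged CtBP on nickel acceptor beads; compounds precede bead addition by 2 h at 37 °C.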
TRPML1 blocker: blocks the human TRPML1 channel; Q9GZU1; TRPML1-inducible cells, Ca2+ dye fluorescence, FDSS; stronger effect = lower value; inhibition of EC80 agonist-evoked calcium signal; activity change, negative = inhibition, % (no concentration beside the values); actives 0.02% (n = 390,000); AID 624415; in the data active means activity change below about -50%; inconclusive means about -30% to -50%; inactive means above about -30%;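 note: stimulus is agonist 54-4 at its EC80 concentration; % is set by controls: 0 for no effect and ±100 for the full control effect; compound concentration not given in the record; the text of the record puts the active cut at -80%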
Target sequence (Q9GZU1 whole entry, looked up): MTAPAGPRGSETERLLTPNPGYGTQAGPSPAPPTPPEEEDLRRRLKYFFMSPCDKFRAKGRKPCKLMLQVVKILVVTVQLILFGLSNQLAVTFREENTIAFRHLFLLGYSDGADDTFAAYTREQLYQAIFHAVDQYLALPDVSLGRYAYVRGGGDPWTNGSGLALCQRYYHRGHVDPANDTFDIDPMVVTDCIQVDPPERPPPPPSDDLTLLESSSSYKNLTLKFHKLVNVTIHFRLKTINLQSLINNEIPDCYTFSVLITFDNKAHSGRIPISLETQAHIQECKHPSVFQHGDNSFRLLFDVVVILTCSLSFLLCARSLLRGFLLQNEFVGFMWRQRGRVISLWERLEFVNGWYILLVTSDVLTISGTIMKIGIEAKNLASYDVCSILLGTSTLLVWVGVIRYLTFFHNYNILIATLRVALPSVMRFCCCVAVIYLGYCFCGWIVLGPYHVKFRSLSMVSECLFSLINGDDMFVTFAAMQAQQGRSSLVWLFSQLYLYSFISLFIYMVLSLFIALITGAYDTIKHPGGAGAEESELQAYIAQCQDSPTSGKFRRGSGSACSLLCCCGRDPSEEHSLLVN
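Calcium fluorescence in TRPML1-DL cells induced overnight with Tet: a 110 s read after compound pin addition, then a 110 s antagonist read after challenge with 54-4 at 4 uM final (EC80).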
Six1-Eya2 inh: inhibitors of human Six1/Eya2 interaction | AlphaScreen GST-Six1/His-Eya2 binding, biochemical; stronger effect = lower value; control for the full effect not named in the record | activity change, % (concentration not given with the values) | actives 0.56% (n = 360,000) | Q15475+O00167; in the data active = activity change below about -65%; inconclusive = about -30% to -65%; inactive = above about -30%; note: % is set by controls: 0 for no effect and ±100 for the full control effect
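Six1/Eya2 binding was read as AlphaScreen signal after compounds were pinned into GST-Six1 plus His-tagged Eya2 (5X stock 250/500 nM) in pH 8.0 Tris/NaCl/TCEP buffer, beads added, then incubated 1 h, 37 C, dark.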
TRPML1 ag: human mucolipin-1 channel agonism; TRPML1-expressing cells, Ca2+ dye fluorescence, FDSS; host cell line not named in the record; reference of the full effect not given here; activation, % (test concentration not listed); actives 0.12% (n = 410,000); AID 624414; in the data active = activation above about 50%; inconclusive = about 30% to 50%; inactive = below about 30%; note: 0% is about no effect; the text of the record puts the active cut at 80%
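Tetracycline-induced TRPML1-DL cells are seeded and incubated overnight before loading with a no-wash Ca2+ dye and quencher. Agonist activity is taken from the 110 s fluorescence read following compound pin-transfer on an FDSS, before EC80 54-4 challenge.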
PINK1 expr mod: changes PINK1 expression | PINK1 immunofluorescence, high-content cytometry, 24 h | Potency, µM (titrated, usually from 76.6 µM), without a hit: at the top dose activation (PINK1 increase), actives largely listed as activators | actives 0.2% (n = 410,000); active = well fitted activation curve with a large enough effect; inconclusive = small, poorly fitted or top-dose-only effect; inactive = flat fitted curve, though single readings scatter; cell line not stated here;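 note: potency is the fitted concentration of half-maximal effect; % of control where 0% means no effect; nearly all actives have a fitted effect of over 65% in size; a mitochondrial uncoupler was the plate control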
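PINK1 protein level read as immunofluorescence by microplate cytometer in a fixed, stained stable cell line after 24 h exposure to five compound concentrations, with CCCP as control.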
* marks the source's active call; other numbers are inactive results; ? = inconclusive; / = not tested or not shown; & = joins results of further samples; [ ] = another dose, or the depositor's remark.

SMILES	D2 ag	CtBP-E1A blk	TRPML1 blocker	Six1-Eya2 inh	TRPML1 ag	PINK1 expr mod
Cc1ccc(NC(=O)CCSc2nnc(Cc3ccccc3)o2)cc1	5.6	6	-13	-1	1.6	-0.2%
COc1cc(NC(=O)CCS(=O)(=O)c2ccc3c(c2)CC(=O)N3C)cc(OC)c1OC	/	/	11	/	-0.7	0.3%
O=C(C1CCN(S(=O)(=O)c2cccs2)CC1)N1CCN(c2ccccc2)CC1	0.2	-5	-13	2	-0.2	/
Cc1ccc(NC(=O)CS(=O)CC(=O)NCCCN(C)c2ccccc2)cc1 (configuration not stated)	0.0	-1	30	3	0.7	5.1%[38.3 µM]
O=C(c1ccco1)N1CCN(S(=O)(=O)c2ccc3c(c2)CCN3C(=O)C2CC2)CC1	0.3	0	-8	3	-1.1	0.4%
CCC1CCCCN1C(=O)CCS(=O)(=O)c1ccccc1 (configuration not stated)	-4.8	1	7	8	6.1	0.1%
COC(=O)c1ccc(CN(Cc2ccc(OC)c(OC)c2)S(=O)(=O)c2ccc(F)c(C(=O)Nc3cc(C)ccc3C)c2)cc1	/	/	-13	/	1.2	2.2%
O=C(COc1ccc(Br)cc1Cl)NC(=S)Nc1ccccn1	-5.7	-2	26	-1	0.7	-0.4%
CCOc1ccc(S(=O)(=O)N2CCCC(C(=O)N3CCOCC3)C2)cc1C (configuration not stated)	-2.8	3	6	-1	0.8	0.4%
COc1ccccc1CNc1ccc(N2CCOCC2)c(C(=O)O)c1	0.9	-8	1	9	0.9	/
CN(C(=S)NC(=O)c1ccccc1Br)C1CCCCC1	-3.4	-12	-4	0	-0.8	4.9%[38.3 µM]
Cc1cccc(NC(=O)C2CCN(S(=O)(=O)c3c(C)noc3/C=C/c3ccco3)CC2)c1C	/	/	-14	/	-0.3	-0.1%
COC(=O)CN(n1cnnc1)S(=O)(=O)c1ccc(C)cc1	0.2	-4	18	-9	-0.5	-0.4%
Cc1ccc(S(=O)(=O)N2CCN(C(=O)CSc3nc4ccccc4c(=O)[nH]3)CC2)c(C)c1	-2.3	-6	-6	-1	-1.0	-2.2%
O=C(c1ccc2c(c1)OCCO2)N(Cc1cccnc1)c1nc2ccc(F)cc2s1	/	/	13	/	-0.5	0.9%
Cc1[nH]c(=S)c(C#N)c(-c2ccccc2)c1C(=O)Nc1ccccc1	-4.7	1	-3	0	1.3	-0.7%
Cc1c(C(=O)N(Cc2ccco2)Cc2cccs2)oc2ccccc12	1.7	-1	35	-2	5.6	0.7%
Cc1ccc(-n2ccnc(SCC(=O)NC3CCCC3)c2=O)cc1F	-2.9	3	8	-2	-0.3	6.3%
CC(=O)N1CCOc2cc(S(=O)(=O)N(C)Cc3ccccc3)c(Cl)cc21	/	/	7	/	1.0	2.4%
COCCCNCCOCCOc1ccc(C)cc1[N+](=O)[O-]	-1.9	2	10	4	-0.3	-2.6%
Cc1ccc(S(=O)(=O)NCC(C)n2nc(C)nc2C)cc1 (configuration not stated)	6.5	2	39	3	1.0	-0.8%
Cc1ccccc1C(=O)Nc1ccc(Br)c(C)n1	-1.2	6	1	23	1.0	-0.5%
O=C(CN1C(=O)c2ccccc2S1(=O)=O)N1CCc2ccccc2C1	-2.4	-3	12	7	-0.8	1.6%
COc1ccc(-n2nnc(-c3nc(-c4cccs4)no3)c2N)cc1	/	/	-11	/	-1.1	1.5%
O=C(CSc1ncnc2ccccc12)N1CCCC1	-4.3	-23	1	24	-0.5	-1.3%

Quoted from the results shown (six entries):
SMILES	D2 ag	CtBP-E1A blk	TRPML1 blocker	Six1-Eya2 inh	TRPML1 ag	PINK1 expr mod
Cc1ccc(NC(=O)CCSc2nnc(Cc3ccccc3)o2)cc1	5.6	6	-13	-1	1.6	-0.2%
COc1cc(NC(=O)CCS(=O)(=O)c2ccc3c(c2)CC(=O)N3C)cc(OC)c1OC	/	/	11	/	-0.7	0.3%
O=C(C1CCN(S(=O)(=O)c2cccs2)CC1)N1CCN(c2ccccc2)CC1	0.2	-5	-13	2	-0.2	/
Cc1ccc(NC(=O)CS(=O)CC(=O)NCCCN(C)c2ccccc2)cc1 (configuration not stated)	0.0	-1	30	3	0.7	5.1%[38.3 µM]
O=C(c1ccco1)N1CCN(S(=O)(=O)c2ccc3c(c2)CCN3C(=O)C2CC2)CC1	0.3	0	-8	3	-1.1	0.4%
CCC1CCCCN1C(=O)CCS(=O)(=O)c1ccccc1 (configuration not stated)	-4.8	1	7	8	6.1	0.1%

(next part)
SMILES	D2 ag	CtBP-E1A blk	TRPML1 blocker	Six1-Eya2 inh	TRPML1 ag	PINK1 expr mod
N#C/C(=C/c1ccc(C(=O)O)cc1)C(=O)NCc1ccccc1	1.0	-3	-15	4	0.5	7.1%[38.3 µM]
CC(=O)OC[C@@H]1CN(Cc2ccccc2)C[C@H](n2cnc3c(NCc4ccco4)ncnc32)O1	-1.5	-5	/	-8	-0.5	0.1%
Cc1c(C(=O)NCc2cccc([N+](=O)[O-])c2)sc(=O)n1Cc1ccc(F)cc1	8.3	-3	/	-16	0.1	0.9%
COc1ccc2c(C)cc(C)nc2n1	0.9	/	8	-11	0.0	-0.5%
Cc1ccc(N(CC(=O)O)C2SC(=O)NC2=O)cc1 (configuration not stated)	-2.6	-2	8	6	0.1	-0.2%
CCCN1C/C(=C/c2ccc3c(c2)OCO3)C(=O)/C(=C/c2ccc3c(c2)OCO3)C1	1.9	2	-1	-7	1.7	-2.5%
COc1cc(OC)cc(C(=O)NC(=S)NNC(=O)Cc2cccs2)c1	10	/	-5	0	0.8	0.0%
CC(=O)c1[nH]c(C)c(C(=O)N2CCCC(Nc3cccc(F)c3)C2)c1C (configuration not stated)	4.3	4	1	2	-0.6	-0.8%
CC(=O)c1ccc(N2C(=O)N(Cc3cc(C)ccc3C)c3ccccc3S2(=O)=O)cc1	/	/	11	/	-0.3	0.0%
CC(=O)Nc1cccc(Nc2ccc(C#N)cc2)c1	2.2	8	/	4	-0.2	0.0%
Cc1nnc(N2CCC(C(=O)N3CCCCC3)CC2)c2nn(-c3ccccc3)c(C)c12	/	/	32	/	0.9	0.8%
CNS(=O)(=O)c1cnccc1N1CCN(c2cccc(C)c2)CC1	-1.3	7	13	10	0.0	-0.2%
Cc1ccc(C)c(NC(=O)CSc2nc3nc(-c4cccs4)cc(C(F)(F)F)c3c(=O)[nH]2)c1	-4.1	-10	/	-10	/	?
O=C(COC(=O)c1ccccc1[N+](=O)[O-])Nc1cc(S(=O)(=O)N2CCOCC2)ccc1N1CCCC1	-0.7	/	21	-1	4.8	-1.1%
COc1ccccc1OCC(=O)NCC1(N(C)C)CCCCC1	/	/	18	/	-0.9	0.4%
Nc1ccc(C(=O)Nc2cccc(NC(=O)c3ccc(N)cc3)c2)cc1	-3.8	5	-2	-18	-0.8	-0.5%
Cn1c(CNS(=O)(=O)c2ccc(Br)cc2)n[nH]c1=S	-3.1	8	2	2	1.0	2.2%
COc1ccc(CN2CC(=O)N(c3ccccc3OC)C2=S)cc1OC	14	1	-13	-3	-0.8	1.0%
CCN(CC(F)(F)C(F)F)S(=O)(=O)c1ccc(NC(=O)OC)cc1	0.5	5	-4	3	0.7	-0.7%
COc1ccc(NC(=O)C=C(C)C)cc1Cl	-4.3	3	4	3	0.1	/
COC(=O)C1=C(C)N(c2ccc(C)c(C)c2)/C(=C/c2ccco2)C1=O	-3.5	3	-10	13	0.8	6.4%
CC(CCc1ccccc1)NCc1ccncc1 (configuration not stated)	?	-1	-3	2	-0.1	0.5%[38.3 µM]
COc1ccccc1NS(=O)(=O)c1cc(N=N/C(C(=O)Nc2ccc(Cl)cc2)=C(/C)O)ccc1C	4.8	/	3	-2	-0.4	5.2%
Nc1nc(NCc2ccccc2)nc(NCCO)c1[N+](=O)[O-]	1.2	/	-9	4	0.4	2.1%
Cc1ccccc1C(=O)N1CCC(C(=O)N(C)CCOc2ccccc2)CC1	-6.9	8	-2	0	0.1	3.2%
SMILES	D2 ag	CtBP-E1A blk	TRPML1 blocker	Six1-Eya2 inh	TRPML1 ag	PINK1 expr mod
O=C(NCCc1ccc(F)cc1)C(=O)NCC(c1cccs1)S(=O)(=O)c1ccccc1 (configuration not stated)	/	/	40	/	3.2	1.0%
COc1ccc(C2Nc3ccccc3C(=O)N2Cc2ccco2)cc1COc1ccc(F)cc1 (configuration not stated)	0.5	0	-18	-12	2.2	3.9%
O=C(CCc1nc(-c2cccs2)no1)Nc1ccccc1[N+](=O)[O-]	/	/	8	/	0.5	0.9%
S=C(NCCSCc1ccc(Cl)cc1)Nc1ccccc1	-1.9	4	-6	-10	0.5	3.0%
Cc1ccc2nc(NCCc3ccccc3)c3nncn3c2c1	0.2	-9	-1&2	-6	2.2&2.4	17%&2.1%
CC(C)(C)OC(=O)N1CCC(c2c(C(=O)N3CCCCC3)cnn2-c2ccc(Cl)cc2)CC1	/	/	3	/	-0.8	-0.8%
COC(=O)C(/C=N/OCc1ccc([N+](=O)[O-])cc1)NC(=O)c1ccccc1 (configuration not stated)	-2.8	-4	12	-3	5.8	-0.5%
CCOC(=O)C1=C(C)Nc2sc(C(=O)c3ccc(F)cc3)c(N)c2C1c1ccc(C(=O)OC)cc1 (configuration not stated)	-6.1	16	-10	-4	-0.4	1.5%
Cc1ccc(C(=O)NN2CC(O)=C(c3nc(-c4cccc([N+](=O)[O-])c4)cs3)C2=N)cc1	1.6	/	-1	-7	-0.1	3.2%
COc1cc2sc3ccc(-c4ccc5[nH]ccc5c4)cc3c(=O)c2cc1OC	2.4	1	-17	2	-0.7	1.8%
CCCCn1c2nc3ccccc3nc2c2c(=O)n(CCC)cnc21	-0.4	-3	26	14	-0.6	1.1%
COc1ccccc1NC(=O)C(=O)N/N=C(\C)CC(=O)Nc1ccccc1C(F)(F)F	-4.2	-10	-1	-8	0.4	2.7%
CCN(CC)C1=CC(=[N+]2CCCC2)CC(C)(C)C1	-2.9	-6	-7	13	-0.3	-0.5%
OC[C@@H]1CN(Cc2ccco2)C[C@H](n2cnc3c(NC4CCCC4)ncnc32)O1	-3.0	8	/	-3	-0.4	-0.3%
CCC(C)NC(=S)N1CCN(C(c2ccccc2)c2ccccc2)CC1 (configuration not stated)	-4.3	-11	-2	-7	0.4	-0.5%
O=C(NC(Cc1c[nH]c2ccccc12)C(=O)Nc1ccc(F)c([N+](=O)[O-])c1)c1cccs1 (configuration not stated)	0.4	-8	21	-14	0.9	-3.3%
CCOc1ccccc1NC(=O)C1=C(C)Nc2ncnn2C1c1ccco1 (configuration not stated)	/	/	9	/	0.6	-5.7%
CCOC(=O)[C@]12CCCC=C1N(Cc1cccc3ccccc13)C(=O)[C@H](CC(=O)NCc1ccc(OC)c(OC)c1)C2	/	-3	/	-19	-0.5	0.2%
C/C(=N\NC(=O)C(NC(=O)c1ccccc1)C(C)C)c1ccccc1 (configuration not stated)	-1.8	12	6	1	0.3	3.5%
COC(=O)c1ccc(COc2ccc3c(C)c(C)c(=O)oc3c2C)o1	-1.3	10	18	5	1.2	16%[38.3 µM]
Cc1ccc2c(c1)C1(C(=O)N2)N2CCCC2C(C(=O)c2ccc3ccccc3c2)C12C(=O)Nc1ccccc12 (configuration not stated)	-4.3	-7	-6	1	0.6	0.3%
